Source: PubChem BioAssay
SARS PLP yeast – qHTS of Yeast-based Assay for SARS-CoV PLP; AID 485353, 2010; 330,000 tested, 0.19% active; Potency, µM (titrated, usually from 32.9 µM), for the others: at the highest dose activity, positive = growth rescue; S. cerevisiae expressing SARS-CoV PLpro, growth rescue; control for the full effect not named in the record; also: 0% is about no effect; nearly all actives have a fitted effect of over 55% in size; growth read by luminescence after 48 h
Cruzain inh noDet – qHTS Assay for Promiscuous and Specific Inhibitors of Cruzain (without detergent). Cruzipain (Trypanosoma cruzi), P25779. purified cruzain, Z-FR-AMC fluorescence, no detergent. Potency, µM, inactives show max response, negative = inhibition, most hits filed as inhibitors. 200,000 tested, 2.3% active; active = well fitted curve in the direction sought with a large enough effect; inconclusive = small, poorly fitted or top-dose-only effect, or another doubt; inactive = no such curve, though single readings can be large; an effect the other way counts as inactive or inconclusive;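 also: plate controls were enzyme without inhibitor for no effect and buffer without enzyme for full effect; nearly all actives have a fitted effect of over 40% in size; top concentration of the series not given in the record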
Target sequence (P25779 123-467 limits assumed): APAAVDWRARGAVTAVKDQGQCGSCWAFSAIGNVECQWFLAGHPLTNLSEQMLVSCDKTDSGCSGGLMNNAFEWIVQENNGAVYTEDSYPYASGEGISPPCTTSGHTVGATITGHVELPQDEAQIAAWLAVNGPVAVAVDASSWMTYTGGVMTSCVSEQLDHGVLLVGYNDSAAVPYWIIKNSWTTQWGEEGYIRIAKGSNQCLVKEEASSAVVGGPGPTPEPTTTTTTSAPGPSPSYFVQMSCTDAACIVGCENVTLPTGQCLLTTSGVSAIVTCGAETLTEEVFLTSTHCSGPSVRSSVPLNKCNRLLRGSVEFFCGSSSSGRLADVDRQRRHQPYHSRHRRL
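Purified cruzain at 1.5 nM, pre-incubated 15 min with compound at room temperature in 100 mM sodium acetate pH 5.5, 5 mM DTT, 0.00005% Triton X-100. Reaction started with 2 uM Z-FR-AMC; AMC fluorescence increase over 60 s gives rate.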
LASV entry inh – qHTS for Inhibitors of binding or entry into cells for Lassa Virus. AID 540256, 2011. Lassa virus pseudotype entry inhibition, cell reporter; control for the full effect not named in the record. 300,000 tested, 1.2% active. Potency, µM (titrated, usually from 37.9 µM), inactives show top-dose activity change, negative = inhibition, actives largely listed as inhibitors; active means well fitted inhibition curve with a large enough effect; inconclusive means small, poorly fitted or top-dose-only effect, or effect the other way; inactive means flat fitted curve, though single readings scatter; tested in HEK293 cells; also: % is scaled to controls: 0 for no effect and ±100 for the full control effect; nearly all actives have a fitted effect of over 50% in size; luciferase read-out
2A StopGo – High Throughput Screening for Foot and Mouth Disease Virus Antivirals. human cells with a luciferase reporter of 2A StopGo recoding; control for the full effect not named in the record. 410,000 tested, 1.2% active. AID 1159524, 2015. Potency, µM (doses to about 57.9 µM), for inactives: top-dose signal change, negative = less light; active = well fitted falling curve with a large enough effect; inconclusive = small, poorly fitted or top-dose-only effect; inactive = no such curve, though single readings can be large or run the other way; tested in HEK293T cells; also: % is scaled to controls: 0 for no effect and ±100 for the full control effect; nearly all actives have a fitted effect of over 45% in size; luciferase light after 4 h
NS1 function inh – qHTS Assay for Inhibitors of Influenza NS1 Protein Function | S. cerevisiae slowed by influenza A NS1, growth recovery by OD600 | Potency, µM (titrated, usually from 46.1 µM), without a hit: at the top dose activity, positive = more growth | 270,000 tested, 0.4% active | AID 2326, 2010; also: actives are rising curves; nearly all actives have a fitted effect of over 50% in size
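A cell-based growth assay was used: compounds that relieve NS1-induced slow growth of budding yeast raise OD600. Assay medium was yeast nitrogen base with ammonium sulphate and -URA supplement, pH 6.0, with 2% galactose.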
Cruzain Triton – qHTS Assay for Promiscuous and Specific Inhibitors of Cruzain (with detergent); Cruzipain (Trypanosoma cruzi), P25779; purified cruzain, Z-FR-AMC fluorescence, 0.01% Triton; Potency, µM, inactives show max response, negative = inhibition, hits mostly inhibitors; 200,000 tested, 0.43% active; active = well fitted curve in the direction sought with a large enough effect; inconclusive = small, poorly fitted or top-dose-only effect, or another doubt; inactive = no such curve, though single readings can be large; an effect the other way counts as inactive or inconclusive;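 also: plate controls were neutral wells for no effect and buffer without enzyme for full effect; nearly all actives have a fitted effect of over 40% in size; top concentration of the series not given in the record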
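Cruzain (1.5 nM) preincubated 15 min at RT with compound in 100 mM sodium acetate pH 5.5, 5 mM DTT, 0.01% Triton X-100. Reaction started with 2 uM Z-FR-AMC; AMC fluorescence (ex 360/em 450 nm) change over 60 s gave rate.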
RE007 growth inh – qHTS Assay for Inhibitors of the HIV-1 protein Vpr; S. pombe RE007 Vpr strain, BacTiter-Glo ATP luminescence, 24 h; control for the full effect not named in the record; Potency, µM (series often up to 92.2 µM), inactives show at the top dose activity change, negative = less growth; 360,000 tested, 0.21% active; active = well fitted falling curve with a large enough effect; inconclusive = small, poorly fitted or top-dose-only effect; inactive = no such curve, though single readings can be large or run the other way;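 also: % is scaled to controls: 0 for no effect and ±100 for the full control effect; nearly all actives have a fitted effect of over 50% in size; the assay follows cell death caused by Vpr and the record does not say whether a fall means rescue or toxicity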
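Fission yeast strain RE007, carrying one chromosomally integrated HIV-1 vpr copy, was seeded at OD 0.01 in PMG+AL medium with 23 nL pinned compound. After 24 h at 30 °C and 99% humidity, viability was read by BacTiter-Glo luminescence.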
Marburg entry inh – qHTS for inhibitors of binding or entry into cells for Marburg Virus. Marburg virus pseudotyped entry inhibition, cell reporter; control for the full effect not named in the record; about a third of the inactives were read at about 46 µM. Potency, µM (highest dose often 37.8 µM), inactives show at the highest dose activity change, negative = inhibition, usual class: inhibitors. 300,000 tested, 1.8% active; active = well fitted inhibition curve with a large enough effect; inconclusive = small, poorly fitted or top-dose-only effect, or effect the other way; inactive = flat fitted curve, though single readings scatter; tested in HEK293 cells; about a fifth of its hits are not listed in these tables; also: % is scaled to controls: 0 for no effect and ±100 for the full control effect; luciferase read-out
Active calls of the source: *; u = inconclusive; x = no result given; & = joins results of further samples; [ ] = dose if it differs, or a comment. Unless noted, calls follow the shape of the dose curve; as a rule, active means well fitted rising curve with a large enough effect; inconclusive means small, poorly fitted or top-dose-only effect; inactive means no such curve, though single readings can be large or run the other way. Potency is read from the fitted curve at half-maximal effect.

Values run as follows: SARS PLP yeast, Cruzain inh noDet, LASV entry inh, 2A StopGo, NS1 function inh, Cruzain Triton, RE007 growth inh, Marburg entry inh
1	Cc1ccc(S(=O)(=O)CC(O)COc2ccccc2C#N)cc1 (configuration not stated)
 : 0%, x, u, 4%, -2%, x, -1%, 3%
2	NS(=O)(=O)c1ccc(CCNC(=O)c2cccc3ccccc23)cc1
 : -3%, x, 8%[46.1 µM], -7%, -5%, x, 6%, 7%[46.1 µM]
3	C/C(=N\NC(=O)c1ccc(Cl)c(S(=O)(=O)Nc2ccccc2Cl)c1)c1ccncc1
 : 0%, -1%, -14%, 11%, 18%, -0.5%, -4%, 3%
4	COc1ccc(-c2nn(-c3ccccc3)cc2C2CC(c3cccs3)=NN2C(=O)CCCC(=O)O)cc1 (configuration not stated)
 : -2%, u, 14%, 0%, u, -14%, -12%, -26%
5	Cc1cccc(C(=O)NNC(=O)C23CC4CC(CC(C4)C2)C3)c1O
 : -5%, x, 2%, 20%, -11%, x, -2%, -12%[46.1 µM]
6	Cc1c(N)cccc1N
 : -1%, -2%, x, 0%, x, -3.8%, -7%, x
7	CCCc1nc(SCC(=O)Nc2nnc(SCC)s2)c2c(=O)n(C)c(=O)n(C)c2n1
 : 0%, x, x, u, -3%, x, 1%, x
8	Cc1cc(C)cc(N(CC(=O)NC2CCCC2)C(=O)CCC(=O)Nc2cc(C)on2)c1
 : 1%, x, -1%, 2%, 3%, x, 6%, 0%[46.1 µM]
9	C=CCn1c(SCC#N)nc2c(c1=O)C(C)(C)Cc1ccccc1-2
 : -1%, 4%, -16%, u, -13%, -2.7%, 0%, u
10	C/C(CC(=O)C(F)(F)F)=N\NC(=O)/C(C#N)=C/N(C)C
 : -1%, x, x, -12%, 7%, x, 10%, x

Structural class: the entries above containing nitrogen in an aromatic ring.
Values run as follows: SARS PLP yeast, Cruzain inh noDet, LASV entry inh, 2A StopGo, NS1 function inh, Cruzain Triton, RE007 growth inh, Marburg entry inh
3	C/C(=N\NC(=O)c1ccc(Cl)c(S(=O)(=O)Nc2ccccc2Cl)c1)c1ccncc1
 : 0%, -1%, -14%, 11%, 18%, -0.5%, -4%, 3%
4	COc1ccc(-c2nn(-c3ccccc3)cc2C2CC(c3cccs3)=NN2C(=O)CCCC(=O)O)cc1 (configuration not stated)
 : -2%, u, 14%, 0%, u, -14%, -12%, -26%
7	CCCc1nc(SCC(=O)Nc2nnc(SCC)s2)c2c(=O)n(C)c(=O)n(C)c2n1
 : 0%, x, x, u, -3%, x, 1%, x
8	Cc1cc(C)cc(N(CC(=O)NC2CCCC2)C(=O)CCC(=O)Nc2cc(C)on2)c1
 : 1%, x, -1%, 2%, 3%, x, 6%, 0%[46.1 µM]
9	C=CCn1c(SCC#N)nc2c(c1=O)C(C)(C)Cc1ccccc1-2
 : -1%, 4%, -16%, u, -13%, -2.7%, 0%, u

Other entries.
Values run as follows: SARS PLP yeast, Cruzain inh noDet, LASV entry inh, 2A StopGo, NS1 function inh, Cruzain Triton, RE007 growth inh, Marburg entry inh
11	CCOC(=O)c1c[nH][nH]c1=O
 : 0%, x, x, 3%, 2%, x, -12%, x
12	CCOc1ccc(N2CC(C(=O)Nc3ccc(S(=O)(=O)Nc4nccs4)cc3)CC2=O)cc1 (configuration not stated)
 : 4%, x, x, 20%, -4%, x, -3%, -14%[46.1 µM]
13	CS(=O)(=O)c1nc(-c2ccc(Br)cc2)n[nH]1
 : -2%, x, 2%, 8%, x, x, -8%, -6%
14	CCCN(CCC)CCCNC(=O)c1cc2c(=O)n(C)c3ccccc3c2n1C
 : 0%, -14%, x, -14%, -11%, -6.4%, -12%, -2%
15	CCOc1cc(-c2ccc(OC(=O)c3ccccc3F)cc2)cc(=O)c2c(C)oc(C)c12
 : x, u, 1%[46.1 µM], u, x, -15%, x, 15%[46.1 µM]
16	COc1ccc(NC(=O)O/N=C/c2ccc(Br)cc2)cc1
 : 0%, x, 6%, 25%, -10%, x, -14%, u
17	CC1CN(C(=O)c2ccc(COCC(F)(F)F)o2)CC(C)O1 (configuration not stated)
 : 5%, 0%, 5%, x, 1%, -2.5%, 4%, 14%
18	Cc1cccc(OC(=O)Cn2c(C(F)(F)F)nc3ccccc32)c1
 : -2%, 2%, 9%, -8%, -15%, -2.7%, 17%, u
19	C#Cc1ccc(CN2CCN(CCc3ccccc3)C(CCO)C2)cc1 (configuration not stated)
 : 0%, x, x, -20%, 5%, x, -3%, x
20	Cc1[nH]c2ccccc2c1C(=O)COC(=O)c1ccc([N+](=O)[O-])s1
 : -6%, x, x, -9%, -79%, x, 63µM*, x
21	O=C(NCC1CCCO1)c1ccc2c(=O)n(CC3CCCO3)c(=S)[nH]c2c1 (configuration not stated)
 : -4%, -10%, 0%, 6%, -4%, 0.2%, 10%, 30%
22	Cc1ccc(C2CC(=O)C(C=NCCN3CCN(C(=O)Cc4ccccc4)CC3)=C(O)C2)cc1 (configuration not stated)
 : -5%, u, -4%, -29%, -21%, 2.6%, -2%, -8%&-8%
23	OCC1OC(n2nnc3ccccc32)C(O)C(O)C1O (configuration not stated)
 : -1%, -4%, u, -3%, 0%, 2.0%, 7%, 2%
24	COc1cc(NC(=O)c2ccccc2)c(C)cc1NC(=O)CC(CC(=O)O)c1ccccc1 (configuration not stated)
 : -1%, x, -1%[46.1 µM], -15%, -1%, x, -1%, 7%[46.1 µM]
25	COc1ccc(CCNC(=O)C(=O)NCC2OCCN2S(=O)(=O)c2ccc3c(c2)OCCO3)cc1 (configuration not stated)
 : 0%, x, u, -15%, 9%, x, 0%, u
26	O=C(Cc1ccc(Br)cc1)Nc1ccccc1Sc1ccccc1
 : -17%, 7%, 25%, -27%, -6%, -6.4%, -7%, -24%
27	CC1(C)Cc2c(c(-c3ccco3)[nH]c(=O)c2C#N)CO1
 : u, -8%, 4%, -9%, -5%, -6.5%, 4%, 23%
28	O=C(CNC(=O)c1cccs1)NCCN1CCC(Cc2ccccc2)CC1
 : 7%, -4%, x, x, 2%, -1.0%, x, x
29	COCCCN1C(=O)c2ccc(C(=O)NCc3ccco3)cc2C1=O
 : 3%, 2%, 4%, 23%, 1%, 0.8%, -6%, 11%
30	Cc1cccc(NC(=O)c2ccco2)c1C
 : 4%, x, x, 4%, 6%, x, 0%, x
31	Cc1ccc2cc(CCNC(=O)C(C)C)c(=O)[nH]c2c1C
 : -2%, -3%, 11%, 30%, -40%, -0.3%, -6%, -3%
32	COC(=O)c1ccc(-c2sc3nc(N4CCOCC4)c4c(c3c2N)CC(C)(C)OC4)o1
 : 0%, 10%, u, -9%, 5%, 1.4%, 4%, 10%&10%
33	O=C(COC(=O)CN=C1NS(=O)(=O)c2ccccc21)Nc1ccccc1OC(F)F
 : 5%, x, 1%, 90%[activator], x, x, 17%, 5%
34	CC1(O)N(Cc2ccccc2)C(=O)OC12CCCCC2 (configuration not stated)
 : 3%, -3%, -1%, -5%, 17%, 5.6%, 16%, 9%
35	CCCCn1c(CN(C)Cc2ccccc2)nc2c1c(=O)n(C)c(=O)n2C
 : -1%, 7%, -18%, u, -18%, 1.0%, -5%, u
36	CCCCOC(=O)CSc1nnc(-c2ccc(C)cc2)o1
 : x, -3%, 23%[46.1 µM], u, x, -7.3%, x, x
37	O=C(COC(=O)C1CCC(=O)N1)Nc1cc(Cl)ccc1Cl (configuration not stated)
 : 5%, 0%, 4%, -10%, -5%, -4.8%, 15%, u
38	CCc1cc(C(=O)NC(C)C2CCCO2)cs1 (configuration not stated)
 : u, x, u, 28%, 4%, x, 14%, u
39	CCCCNC(=O)Cn1c2c(c(-c3ccccc3Cl)cc1=O)CCC2
 : -4%, -14%, x, -2%, -5%, 1.5%, 7%, x
40	CCOC(=O)c1c(-c2ccccc2)oc2ccc(OCC(O)CNCCN(C)C)cc12 (configuration not stated)
 : -4%, x, u, u, -6%, x, 8%, u
41	O=C(Nc1ccc(Cl)cc1)NC1CCCCNC1=O (configuration not stated)
 : 1%, x, 20%[46.1 µM], 8%, 6%, x, 1%, u
42	CCc1ccc(CN(Cc2ccco2)c2cnc(S(C)(=O)=O)nc2C(=O)Nc2ccccc2Cl)cc1
 : x, -25%, 3%[46.1 µM], -14%, x, -1.4%, x, u
43	CC(C)C(C)NC(=O)CSc1nnc(-c2c[nH]c3ccccc23)o1 (configuration not stated)
 : -1%, x, -26%, 6%, x, x, 21%, 12%[46.1 µM]
44	Cc1ccc(-c2cc(N)n(-c3ccc(C)cc3)n2)cc1
 : -3%, 17%&-9%, u, 45%&65%[activator], 23%, 5.2%&-1.6%, -2%, 1%&1%
45	CCN(CC)CCNC(=O)Cn1nc(-c2ccc(C)cc2)ccc1=O
 : 0%, -2%, 3%, 12%, -5%, 6.2%, 8%, -8%
46	O=C(Nc1nccs1)C1CC(=O)N(c2ccccc2Cl)C1 (configuration not stated)
 : 0%, 0%, 6%, -4%, 3%, 3.2%, 6%, 5%
47	CCNC(=S)N(CCc1c(C)[nH]c2ccc(C)cc12)Cc1cccs1
 : 8%, x, -25%, u, x, x, -16%, -9%[46.1 µM]
48	C=CCc1cc(Cl)ccc1OCCN(C)C
 : -1%, -3%, 3%, 5%, 0%, -0.2%, 10%, u
49	CCOC(=O)C1CCCN(S(=O)(=O)c2nc3nc(C)cc(C)n3n2)C1 (configuration not stated)
 : 3%, x, -9%, 0%, 14%, x, -6%, 19%
50	COC(=O)c1sccc1NC(=S)Nc1ccc(F)cc1
 : -3%, -9%, 9%, -7%, 5%, -3.4%, 4%, -9%
51	COC(=O)c1sccc1S(=O)(=O)N(CC(=O)NCc1ccc(F)cc1)c1ccc(C)c(C)c1
 : x, -5%, -17%[46.1 µM], 0%, x, -0.1%, x, x
